NPYLR7 ag – activates Aedes aegypti NPYLR7 receptor | 270,000 tested, 0.15% active | activation, % at 10 µM | AID 1259423 | HEK293T NPYLR7/Galpha15, GCaMP6s calcium fluorescence; in the data active = activation above about 40%;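 also: 0% = vehicle and 100% = reference agonist at the receptor; some compounds past the cut are filed as inactive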
NPYLR7 ag max-min – recorded beside NPYLR7 ag, whose call it bears; activation, %; measured here: Max-Min RFU normalised activation; some inactives read as strong as hits;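 span of the calcium signal over five minutes; 0% = vehicle and 100% = native peptide agonist; compound fluorescence can raise it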
The depositor's hits bear a star; & = joins results of further samples. Some of the compounds tested, so the mix of outcomes need not match the whole.

SMILES	NPYLR7 ag	NPYLR7 ag max-min
O=C(NCCN1CCCCC1CO)c1ccccc1C(F)(F)F (stereo not given)	9	6
N[C@@H](C(=O)NCc1cccc(CN2CCCC2)c1)c1ccccc1	26	19
COc1nc(-c2ccc(Cl)c(Cl)c2)n(-c2cccc(NC(=O)c3cccs3)c2)n1	23	20
CCCc1cc(C(=O)OC(C(N)=O)c2ccc(F)cc2)n[nH]1 (stereo not given)	6	3
Cc1ccc(Cl)cc1NC(=O)CSc1nnc(CCC(=O)O)c(=O)[nH]1	-2	-3
COc1ccc(N2C(=O)C3N=NN(Cc4ccccc4C)C3C2=O)cc1Cl (stereo not given)	0	-5
O=S(=O)(c1ccc(Cl)s1)N1CCCC1c1nc2ccccc2s1 (stereo not given)	0	6
O=c1c2cc3c(=O)n(C4CCCCC4)ccc3nc2ccn1-c1ccccn1	-1	4
CCN(CC(=O)NCc1cccs1)c1ccc(S(=O)(=O)N2CCCC2)cn1	-1	0
CCCCn1c(SCC(=O)NC(C)COC)nnc1-c1ccc(OC)cc1 (stereo not given)	11	10
CS(=O)(=O)Nc1ccc(Br)cc1	1	-3
CC(C)N(Cc1nc(C(=O)O)cs1)C(=O)Nc1cccc(Cl)c1	2	-7
CCOCC(=O)Nc1scc2c(C(=O)OCC)nn(-c3ccc(F)cc3)c(=O)c12	5	1
O=C(Nc1cccc(CNC(=O)C2COc3ccccc3O2)c1)C1CC1 (stereo not given)	6	7
CN1[C@H]2CC[C@@H]1CN(C(=O)C1(C)CCCCC1)CC2	10	7
CC1CN(CC(=O)NC(C)c2ccc(F)cc2)CCO1 (stereo not given)	6	3
Cc1nn(-c2ccc(F)cc2)c2c1C(c1ccccc1)C1C(=O)CC(C)(C)CC1=N2 (stereo not given)	-5	-4
Cc1ccc2[nH]c3c(=O)n(CC(=O)NCCC4=CCCCC4)cnc3c2c1	3	-1
CN(C)c1ccc(Sc2nnc(NC(=O)c3cccc(Br)c3)s2)cc1	-8	-9
Cc1cccc(C(=O)N2CCCC(OCc3ccccc3Cl)C2)c1 (stereo not given)	-9	-2
CC(C)CC(C#N)NC(=O)C1CC(=O)N(CCN2CCOCC2)C1 (stereo not given)	7	5
CNc1nc(C(=O)NC2CCCCC2C)cs1 (stereo not given)	2	2
O=C(NN=C1CC2CC=CC12)c1ccc(Br)cc1 (stereo not given)	-4	-7
c1ccc(Cc2nc(C3CC3)nn2-c2ccc3c(c2)OCCO3)nc1	10	4
COc1ccc(S(=O)(=O)N2CCCN(c3nc(CCC(C)C)nc4c3cnn4-c3cccc(Cl)c3)CC2)cc1	4	10
CCN(CC1CCCN(CCc2cccc(OC)c2)C1)C(=O)Cc1nonc1C (stereo not given)	5&4	4&2
Brc1ccc(C2=Nc3nnnn3C(c3cccc(Br)c3)C2)cc1 (stereo not given)	22	11
Cc1ccc(/C=C\S(=O)(=O)NCCn2ncccc2=O)cc1	3	1
COc1cc(C2NC(=O)NC(C)=C2C(=O)OC2CCCC(C)C2)ccc1O (stereo not given)	-6	-17
C=C(C)Cn1c(=O)c2c(nc3n2CC(C)CN3c2cc(Cl)ccc2C)n(C)c1=O (stereo not given)	1	3
CN(C)C(=O)C1CCCN1CCCNC(=O)/C=C/c1cscn1 (stereo not given)	6	3
COc1ccc(C2Nc3ccccc3C(=O)N2c2ccccc2)cc1 (stereo not given)	-14	-20
C=c1occc1=C1N=C(c2ccc(NC(=O)c3ccc(Br)o3)cc2)NO1	-4	-7
CCCn1[nH]nnc1=S	12	10
CCOC(=O)C(N)Cc1cc(Cl)cc(Cl)c1 (stereo not given)	11	-3
CCc1nc(-c2nccn2C2CCCc3sc(C)nc32)c(C)[nH]1 (stereo not given)	1	0
OCc1nnc2c3ccccc3c(-c3ccc(Cl)cc3)nn12	-20	-24
CCOC(=O)N1CCN(CC(=O)NC(C)(C#N)C2CC2)CC1 (stereo not given)	6	2
COc1cc(-c2nc3c(F)cccc3n2C2CC2)ccc1OCC#N	3	19
CC(C)CCN(CCC(C)C)S(=O)(=O)Nc1ccn(C)n1	3	-1

19 entries from above, with bars between the fields.
Structure | NPYLR7 ag | NPYLR7 ag max-min
CNc1nc(C(=O)NC2CCCCC2C)cs1 (stereo not given) | 2 | 2
O=C(NN=C1CC2CC=CC12)c1ccc(Br)cc1 (stereo not given) | -4 | -7
c1ccc(Cc2nc(C3CC3)nn2-c2ccc3c(c2)OCCO3)nc1 | 10 | 4
COc1ccc(S(=O)(=O)N2CCCN(c3nc(CCC(C)C)nc4c3cnn4-c3cccc(Cl)c3)CC2)cc1 | 4 | 10
CCN(CC1CCCN(CCc2cccc(OC)c2)C1)C(=O)Cc1nonc1C (stereo not given) | 5&4 | 4&2
Brc1ccc(C2=Nc3nnnn3C(c3cccc(Br)c3)C2)cc1 (stereo not given) | 22 | 11
Cc1ccc(/C=C\S(=O)(=O)NCCn2ncccc2=O)cc1 | 3 | 1
COc1cc(C2NC(=O)NC(C)=C2C(=O)OC2CCCC(C)C2)ccc1O (stereo not given) | -6 | -17
C=C(C)Cn1c(=O)c2c(nc3n2CC(C)CN3c2cc(Cl)ccc2C)n(C)c1=O (stereo not given) | 1 | 3
CN(C)C(=O)C1CCCN1CCCNC(=O)/C=C/c1cscn1 (stereo not given) | 6 | 3
COc1ccc(C2Nc3ccccc3C(=O)N2c2ccccc2)cc1 (stereo not given) | -14 | -20
C=c1occc1=C1N=C(c2ccc(NC(=O)c3ccc(Br)o3)cc2)NO1 | -4 | -7
CCCn1[nH]nnc1=S | 12 | 10
CCOC(=O)C(N)Cc1cc(Cl)cc(Cl)c1 (stereo not given) | 11 | -3
CCc1nc(-c2nccn2C2CCCc3sc(C)nc32)c(C)[nH]1 (stereo not given) | 1 | 0
OCc1nnc2c3ccccc3c(-c3ccc(Cl)cc3)nn12 | -20 | -24
CCOC(=O)N1CCN(CC(=O)NC(C)(C#N)C2CC2)CC1 (stereo not given) | 6 | 2
COc1cc(-c2nc3c(F)cccc3n2C2CC2)ccc1OCC#N | 3 | 19
CC(C)CCN(CCC(C)C)S(=O)(=O)Nc1ccn(C)n1 | 3 | -1

More structures:
SMILES	NPYLR7 ag	NPYLR7 ag max-min
O=C(NCc1ccco1)C1CCN(C(=O)c2cn(-c3ccccc3)nn2)CC1	-3	-4
Cc1ccsc1CN(Cc1ccc(F)cc1)C(=O)CN(C(=O)c1ccc([N+](=O)[O-])cc1)C1CCCCC1	-2	-7
CC(C)Oc1cc(Br)ccc1C(=O)N1CCSCC1	19	13
Brc1ccc(NCC2CCCO2)cc1 (stereo not given)	-6	-9
Cc1nc(CN2CCN(C(=O)c3cc4c(C)nn(-c5cccc(Cl)c5)c4s3)CC2)cs1	2	4
CN1CCC(N(C)CCN(C)S(=O)(=O)c2cccc(Br)c2)CC1	5	3
CC(C)Cc1nc(CCN2CCCO2)n(-c2ccc(F)cc2)n1	0	-6
O=C(Cc1csc(NC(=O)c2ccc[nH]c2=O)n1)NCC1CCCCC1	7	10
O=C1NCC2(CCCN(C(=O)CCNC(=O)c3ccc(F)cc3)C2)O1 (stereo not given)	4	4
O=C(NCCNC(=O)C1CCN(C(=O)CSc2ccccc2)CC1)c1ccccc1	0	4
COc1ncc(-c2c(-c3ccccc3)ncn2Cc2c(C)n[nH]c2C)cn1	24	10
O=C(CCN1C(=O)COc2ccccc21)Nc1nc(-c2ccc(Cl)cc2Cl)cs1	4	3
O=C(CN(CCCN1CCOCC1)S(=O)(=O)c1ccc([N+](=O)[O-])cc1)N(Cc1ccccc1)Cc1ccco1	10	10
COC(=O)CNc1ccc(OC)cc1C(=O)OC	5	-1
CCC(Nc1nccc(-c2ccc(C)nc2C)n1)c1cn2cccnc2n1 (stereo not given)	-1	-2
Cc1cccc2ncc(C(=O)N3CCC4(CCNC(=O)CC4)CC3)c(=O)n12	13	10
Cc1nc2nc(-c3ccc(C(C)C)cc3)cc(C(=O)O)c2[nH]1	-1	-2
COc1ccccc1C(C)N(C)C(=O)c1ncc[nH]1 (stereo not given)	6	3
CCCC1(NC(=O)Cc2c(C)nc(N)nc2C)CC1	7	3
Cc1ccc(C)c(NC(=O)CSc2nnc3ccccn23)c1	-4	-5
O=S(=O)(Nc1ccccc1-c1n[nH]c2c1CCC2)c1ccc2c(c1)CCO2	8	6
O=S(=O)(c1ccc(C2=NNC(=NC3CCCC3)SC2)cc1)N1CCCCC1	0	1
CC(=O)c1cccc(-c2ccc3c(c2)C(C)(Cc2ccccc2F)C(=O)N3)c1 (stereo not given)	1	5
CN(Cc1cc(-c2ccccc2)no1)Cc1cccnc1N	10	8
CCC(=O)c1ccc(Oc2cnn(-c3ccccc3)c(=O)c2Cl)cc1	-3	1
CC(=O)Nc1ccc(C2=NOC(C)C(=O)N2Cc2cccc(C#N)c2)cc1 (stereo not given)	0	0
CN1C[C@@H](NC(=O)COc2ccccc2)C[C@H]1C(=O)N[C@H]1CCCCNC1=O	2	0
COc1cc(OC)cc(C(=O)NCC(c2cccs2)N2CCOCC2)c1 (stereo not given)	6	6
N#CCOC(=O)c1cccc2ccccc12	0	-6
CCC(C(=O)N(Cc1cccc(OS(=O)(=O)CC)c1)C(C)C)c1ccccc1 (stereo not given)	-3	3
CC(CCn1cccn1)Nc1nncc(-c2ccc3ccccc3c2)n1 (stereo not given)	20	10
O=C1CCCN1CCCn1c(-c2ccco2)csc1=Nc1ccc(F)cc1	-4	-6
COc1ccc(CNC(=O)Cn2cnc([N+](=O)[O-])n2)cc1	-5	-11
O=C(CN(Cc1ccco1)C(=O)c1cccc(Cl)c1)N1CC(=O)N(c2ccc(Cl)cc2)C1	-5	1
Cc1ncsc1CCN(C)C(=O)c1cc2n(n1)CCCN(C)C2	1	-1
CCCCCCCC(C)=NNc1nc(C)cc(=O)[nH]1	7	6
COc1cccc(CN2CC(O)CN(C(=O)C3CCCCC3)CC2=O)c1OC (stereo not given)	6	19
CCCCCc1ccc(C(=O)N(CC(=O)N(CCc2c[nH]c3ccccc23)Cc2ccc(Cl)c(Cl)c2)CC(C)C)cc1	-17	-14
Cc1c(C(=O)NCCC2=CCCCC2)cnc2c(-c3ccc(C(C)C)cc3)cnn12	16	23
CCN(CC)C(=O)Oc1ccc2c(ccn2Cc2ccc(F)cc2C(F)(F)F)c1-c1ccc(OC)cc1	26	18
CCCCS(=O)(=O)/C=C/C=C/S(=O)(=O)CCCC	6	10
CCCN(CC(=O)N1CC(=O)N(c2ccc(Cl)cc2)C1)S(=O)(=O)c1ccc(C(C)(C)C)cc1	2	2
COc1ccc(Br)cc1CS(=O)(=O)c1ncc[nH]1	-20	-22
CCCNC(=O)Cn1c(=O)n(-c2ccc(F)cc2F)c(=O)c2ccc(Cl)cc21	-4	10
O=c1c2ccccc2cnn1CN1CCN(S(=O)(=O)c2ccc(Cl)c(Cl)c2)CC1	20	21
O=C(COC1CCCCC1)Nc1cccc(-n2cccn2)c1	3	1
CCOc1ccc(-c2[nH]ncc2-c2ccc(OC)cc2)c(O)c1	1	1
Cc1sc2ncnc(SCC(=O)Nc3cccnc3)c2c1C	3	10
Cc1ccc(N2C(=O)CSC2c2ccc(NC(=O)c3cccs3)cc2)cc1F (stereo not given)	-2	7
COc1cccc(C(=O)N(Cc2ccco2)Cc2c(-c3cccc(C)c3)noc2N2CCOCC2)c1	-11	-4
CCC(C(=O)N(C)Cc1ccc(C)o1)n1cccc1 (stereo not given)	0	-2
Cc1cccc(CNc2nc3cnc(-c4cccc(F)c4)cc3n2C)c1	7	0
CN(C)CC1(O)CCCN(C(=O)c2cn3cc(Cl)cnc3n2)C1 (stereo not given)	1	-7
CCCC1CC(CSc2ncn[nH]2)OC1=O (stereo not given)	6	-1
C=CCc1c(C)nc2c(-c3ccc(Cl)cc3)c(CC)[nH]n2c1=O	-18	-24
C=CCSc1nc2c(c(=O)[nH]1)C(c1cccs1)C(C(=O)OC)=C(C)N2 (stereo not given)	1	4
Cc1ccc(C)c(OC(C)C(=O)N(C)Cc2noc(C3CC3)n2)c1 (stereo not given)	0	-2
Cc1ccc(-c2[nH]ncc2CNCc2cccc(N(C)C)c2)o1	2	0
CC(C)N(CC(=O)N(Cc1cccn1Cc1ccc(Br)cc1)C1CCCCC1)C(=O)N(C)C	1	8
CN(C)CCCOc1ccc(-c2nnc3ccc(C#Cc4ccccc4)cn23)cc1	32	27
Remaining list, next part:
SMILES	NPYLR7 ag	NPYLR7 ag max-min
O=C(NC12CC3CC(CC(C3)C1)C2)C1(c2ccc(Cl)cc2)CCC1	1	47
CC(C)COP(C)(=O)CCC#N (stereo not given)	2	0
C=CCOC(=O)c1sc2nc(-c3ccccc3)ccc2c1N	-3	-1
O=C(O)c1cccc(Nc2c(Oc3cccc(Cl)c3)cnn(-c3ccccc3)c2=O)c1	-4	0
CCCNc1ncnc2c1nnn2C	13	7
C=C1C(=O)O[C@@H]2[C@H]3O[C@]3(C)CCC=C(C)CC[C@@H]12	3	-21
COc1ccc(OC)c(C2C(=C(O)c3ccccc3)C(=O)C(=O)N2CCCn2ccnc2)c1 (stereo not given)	4	7
C#CCn1c(O)c(N=NC(=O)CNC(=O)c2cccs2)c2ccccc21	-4	-9
CC(NC(=O)Cn1nnn(-c2ccccc2Cl)c1=O)c1ccc(Br)cc1 (stereo not given)	0	6
C=CCN1CCN(c2nc3c(c(=O)[nH]c(=O)n3C)n2CCCc2ccccc2)CC1	-3	-2
O=C(c1ccc[nH]1)N1C[C@@H]2CN(C(=O)C3CC3)C[C@]2(C(=O)O)C1	2	-1
CC(C)OC(=NCCN(C)C)NC(=O)c1cccs1	17	12
Cc1nc(C)c(C(=O)N2Cc3cnc(CC(C)C)nc3C2)s1	-1	-3
Nc1nc(CSc2nnc(C3CC3)n2C2CC2)nc(Nc2ccccc2)n1	0	2

Source: PubChem BioAssay (Fisher Drug Discovery Resource Center)
